INS promoter inh: inhibitors of insulin promoter-driven GFP, primary screen, imaging, TRM-6 cells (human fetal islet line), eGFP reporter, cell count; hit rate 0.9% among 130,000; inhibition, % at 2 µM; reporter expression induced with tamoxifen; AID 1273, 2008;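 active = inhibition above the mean plus 3 SD, with well images judged a real hit on visual review, cut at about 60% in these data, passing the limit was not always enough; inconclusive = inhibition over the cutoff but images rejected on review; inactive = inhibition not above the cutoff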
GALR2 agonist: GALR2 receptor agonists, primary screen, cell-based; GALR2-expressing cells, agonist activation read-out; activation, %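 (tested at 5 µM)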; hit rate 0.48% among 140,000; AID 803, 2007;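 active = above mean plus 3 SD of all compounds, about 5% in these data, not always enough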;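 note: 0% = vehicle buffer wells and 100% = reference agonist at full effect; tested in CHO reporter cells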
Target sequence (O43603 whole entry, looked up): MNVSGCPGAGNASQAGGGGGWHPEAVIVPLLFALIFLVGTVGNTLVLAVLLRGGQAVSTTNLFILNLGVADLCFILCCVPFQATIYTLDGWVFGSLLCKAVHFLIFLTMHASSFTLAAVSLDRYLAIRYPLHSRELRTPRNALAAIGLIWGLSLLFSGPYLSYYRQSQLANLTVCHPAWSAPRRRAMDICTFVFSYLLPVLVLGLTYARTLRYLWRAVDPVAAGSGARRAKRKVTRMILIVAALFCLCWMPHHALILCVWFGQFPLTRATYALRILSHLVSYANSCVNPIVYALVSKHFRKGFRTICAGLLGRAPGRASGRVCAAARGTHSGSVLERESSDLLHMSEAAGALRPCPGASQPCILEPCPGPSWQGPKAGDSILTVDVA
PKD1 kinase inh: inhibitors of human PKD1 kinase, biochemical, fluorescence polarization; Serine/threonine-protein kinase D1 (Homo sapiens), Q15139; PKD1 kinase fluorescence polarization assay; inhibition, %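 (about 10 µM by stock and volumes)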; hit rate 0.056% among 200,000; AID 797, 2007;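 active = inhibition of 50% or more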;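 note: controls were vehicle for no effect and a reference inhibitor for full effect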
RGS16-Gao: modulators of RGS16 binding to Galphao, primary screen, biochemical, human proteins, multiplexed bead flow cytometry; Regulator of G-protein signaling 16 (Homo sapiens) + Guanine nucleotide-binding protein …; bead-based flow cytometry RGS16-Galphao binding, fluorescence; actives lie on both sides; binding response (% of control), % at 10 µM; hit rate 0.38% among 220,000;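 active = below 25% or above 175%, edge rows of some plates excepted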;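 note: Galphao activated by GDP with aluminum fluoride before binding; 100% = wells without compound and 0% = beads without RGS; some results beyond the cut were filed as inactive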
Target sequence (O15492 whole entry, looked up): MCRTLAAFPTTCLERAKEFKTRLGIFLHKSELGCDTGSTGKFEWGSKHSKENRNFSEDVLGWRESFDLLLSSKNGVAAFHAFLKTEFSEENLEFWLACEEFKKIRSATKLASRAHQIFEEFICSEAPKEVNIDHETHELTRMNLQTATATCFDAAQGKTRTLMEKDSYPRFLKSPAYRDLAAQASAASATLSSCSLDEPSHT
Target sequence (P09471 whole entry, looked up): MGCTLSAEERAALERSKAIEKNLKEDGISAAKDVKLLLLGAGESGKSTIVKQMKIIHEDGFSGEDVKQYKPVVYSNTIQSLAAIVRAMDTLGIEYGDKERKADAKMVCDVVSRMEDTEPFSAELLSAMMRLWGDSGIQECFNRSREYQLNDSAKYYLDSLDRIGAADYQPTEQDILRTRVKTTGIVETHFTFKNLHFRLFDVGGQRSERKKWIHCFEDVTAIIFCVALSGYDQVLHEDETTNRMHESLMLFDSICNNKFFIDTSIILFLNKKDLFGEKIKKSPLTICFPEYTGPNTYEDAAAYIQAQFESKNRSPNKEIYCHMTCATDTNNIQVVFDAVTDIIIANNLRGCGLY
HSV augment: enhancers of HSV replication in host cells, fold increase, host cell viability | HSV replication augmentation in cells | maximum fold increase | hit rate 0.005% among 220,000;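 active = peak rise of 1.5-fold or more in the series; inconclusive = self-fluorescent or not available for retest; tested in PC3 cells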;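 note: first round at 10 µM; read as green reporter fluorescence; hits show the peak of a series up to 25 µM; 1 = signal of infected wells without compound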
INS promoter inh cell count: also measured in INS promoter inh; calls as there; normalized cell count, %; measured here: cell count, toxicity; reference of the scale not given here;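 cells exposed to compound for 48 h; stained nuclei by imaging scaled within each plate; lower means fewer cells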
HSV augment primary fold: second read-out of HSV augment, no call of its own (marks repeat the call); fold increase; compound at 10 µM; measured here: primary screen fold increase 10 uM; tested in PC3 cells;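 GFP signal in the first replicate; 1 = infected wells without compound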
* marks the source's active call; other numbers are inactive results; i = inactive; ? = inconclusive; · = no result given. Outcome played no part in choosing rows, and some 1.1% of all compounds hit somewhere here.

Labels used below – A = INS promoter inh; B = INS promoter inh cell count; C = GALR2 agonist; D = PKD1 kinase inh; E = RGS16-Gao; F = HSV augment; G = HSV augment primary fold
SMILES: Cc1cccc(NC(=O)CCOc2ccccc2)c1
  A = -276.9	B = 100.6	C = -2.4	D = -1.1	E = 111.0	F = i	G = 0.91
SMILES: O=C(NCc1ccco1)N1c2ccccc2Sc2ccccc21
  A = -28.6	B = 91.3	C = -1.6	D = -8.7	E = 63.7	F = i	G = 0.88
SMILES: COc1cc2c(cc1NC(=O)/C=C/c1ccc([N+](=O)[O-])cc1)oc1ccccc12
  A = -25.0	B = 119.2	C = -0.1	D = -1.4	E = 98.3	F = i	G = 0.89
SMILES: COc1ccccc1-c1nc(-c2ccncc2)no1
  A = 18.2	B = 90.0	C = -0.4	D = 3.1	E = 93.6	F = i	G = 0.92
SMILES: N=C(N)n1c(N)nc2ccccc2c1=O
  A = ·	B = ·	C = ·	D = ·	E = 98.9	F = i	G = 1.03
SMILES: Cc1nn(CC(=O)Nc2cccnc2)c(=O)c2ccccc12
  A = ·	B = ·	C = ·	D = -0.5	E = 102.7	F = i	G = 0.88
SMILES: O=c1ccccn1Cc1c(Cl)cccc1Cl
  A = 50.0	B = 91.0	C = -1.1	D = -4.8	E = 110.3	F = i	G = 0.97
SMILES: O=C(CCS(=O)(=O)CCN1CCOCC1)NCNC(=O)CCS(=O)(=O)CCN1CCOCC1
  A = ·	B = ·	C = ·	D = -5.1	E = 100.2	F = i	G = 0.89
SMILES: CCCC1CCc2c(sc(NC(=O)c3cccs3)c2C(N)=O)C1 (stereo unspecified)
  A = 35.1	B = 54.3	C = -2.1	D = -7.5	E = 97.2	F = i	G = 1.1
SMILES: Cc1cc2ccccn2c1C(=O)c1ccc([N+](=O)[O-])o1
  A = -63.6	B = 27.1	C = ·	D = 1.1	E = 112.0	F = i	G = 0.63
SMILES: COc1ccc(C)cc1S(=O)(=O)NC1CCCC1
  A = -30.8	B = 113.2	C = -1.1	D = -5.5	E = 107.1	F = i	G = 1.01
SMILES: CC(C)(C)C(=O)NC1CCN(S(=O)(=O)c2cccc(C(F)(F)F)c2)CC1
  A = 15.4	B = 124.0	C = -1.9	D = -13.5	E = 102.7	F = i	G = 0.95
SMILES: CC(=O)c1cccc(NC(=O)N2C3CCC2CC(NC(=O)Nc2ccccc2)C3)c1 (stereo unspecified)
  A = ·	B = ·	C = ·	D = 2.5	E = 101.8	F = i	G = 0.97
SMILES: COc1cc(C(=O)Nc2cccc(-c3nc4cc(C)cc(C)c4o3)c2)cc(OC)c1OC
  A = 45.5	B = 62.8	C = -0.8	D = 5.6	E = 91.8	F = i	G = 1.01
SMILES: N#Cc1c(/N=C/c2ccccc2)oc(-c2ccccc2)c1-c1ccccc1
  A = -7.7	B = 111.0	C = -1.1	D = -1.7	E = 101.6	F = i	G = 0.94
SMILES: COCCNC(=O)CN1C(=O)CSc2cc(S(=O)(=O)N3CCCCCC3)ccc21
  A = ·	B = ·	C = -2.2	D = -1.1	E = ·	F = i	G = 0.96
SMILES: Cc1cc(-n2c(C)cc(C(=O)CCl)c2C)no1
  A = ·	B = ·	C = ·	D = 2.9	E = 100.6	F = i	G = 0.76
SMILES: CN(C)[C@@H](CO)c1nnc([C@H](Cc2ccc(O)cc2)NC(=O)C2CCNCC2)o1
  A = ·	B = ·	C = ·	D = -0.8	E = 106.8	F = i	G = 1.03
SMILES: CC(C)CN1CCC(C(=O)NCC2CCCO2)CC1 (stereo unspecified)
  A = 16.7	B = 100.5	C = -1.7	D = 5.0	E = 105.5	F = i	G = 1.11
SMILES: N#Cc1c(NC(=O)CCCl)sc2c1CCCCC2
  A = 4.8	B = 68.3	C = ·	D = -4.7	E = 91.9	F = i	G = 0.95
SMILES: CCOCc1nnc(NC(=O)CSCc2ccccc2)s1
  A = ·	B = ·	C = -0.4	D = 16.7	E = 107.2	F = i	G = 0.94
SMILES: CC(=O)c1ccc(Nc2nc(=O)c3cccnc3s2)cc1
  A = 79.3*	B = 110.6*	C = -1.5	D = 4.1	E = 97.9	F = ·	G = ·
SMILES: CCc1c(C)sc(NC(=O)c2noc(C)c2[N+](=O)[O-])c1C#N
  A = 35.3	B = 116.8	C = ·	D = 2.1	E = 97.2	F = i	G = 0.99
SMILES: COc1ccc(Cc2nnc(N)s2)cc1OC
  A = 38.5	B = 84.1	C = -1.1	D = -0.2	E = ·	F = i	G = 0.94
SMILES: CCOc1ccc(Br)cc1C(=O)Nc1ccc(C(=O)NCC(C)C)cc1
  A = -42.9	B = 77.0	C = 14.1*	D = -0.6	E = 64.1	F = i	G = 1.02
SMILES: NC(=O)C(c1ncc(C(F)(F)F)cc1Cl)c1c(Cl)cccc1Cl (stereo unspecified)
  A = 3.1	B = 60.2	C = -2.6	D = 3.2	E = 58.4	F = i	G = 0.96
SMILES: CSc1nnc(NC(=O)c2cc3ccccc3oc2=O)s1
  A = ·	B = ·	C = -3.1	D = -1.0	E = 103.7	F = i	G = 0.82
SMILES: COC(=O)c1c(NC(=O)CSc2nnnn2C)sc(C)c1C
  A = -39.3	B = 152.2	C = -2.1	D = -3.8	E = 101.1	F = i	G = 1.08
SMILES: Cc1ccccc1NC(=O)CN1C(=O)N/C(=C\c2cccn2-c2cccc(C(=O)O)c2)C1=O
  A = ·	B = ·	C = ·	D = -2.6	E = 95.1	F = i	G = 0.99
SMILES: COC(=O)c1ccccc1COn1c(=O)c[n+]([O-])c2ccccc21
  A = -112.1	B = 47.8	C = -3.6	D = -8.6	E = 187.0	F = ?	G = ·
SMILES: CCCCSc1nnc(CSc2ncccn2)n1C
  A = 50.0	B = 144.1	C = ·	D = -4.3	E = 100.4	F = i	G = 0.87
SMILES: Cc1cnc(C(=O)Nc2ccc(C(=O)N3CCCCC3)cc2)cn1
  A = -22.6	B = 58.8	C = -2.6	D = -1.5	E = 105.1	F = i	G = 0.96
SMILES: COc1ccc(CNS(=O)(=O)c2ccc3oc(C(=O)O)c(C)c3c2)cc1
  A = -9.3	B = 75.0	C = -0.7	D = -2.5	E = 91.5	F = i	G = 1.1
SMILES: COc1cccc(N(C(=O)Cn2nnc(-c3ccc(F)cc3)n2)C(C(=O)NCC2CCCO2)c2ccc(Cl)cc2)c1 (stereo unspecified)
  A = ·	B = ·	C = ·	D = -5.7	E = 110.0	F = i	G = 1.02
SMILES: CCOc1ccc(-c2nnc(N3CCCCC3)c3ccccc23)cc1
  A = -20.0	B = 116.2	C = -2.9	D = -4.5	E = 103.4	F = i	G = 0.74
SMILES: CCOC(=O)Cc1csc(NC(=O)CSc2nc(-c3ccccc3)c(C#N)c(=O)[nH]2)n1
  A = 22.2	B = 82.8	C = ·	D = -0.3	E = 101.8	F = i	G = 0.96
SMILES: O=C(c1cccc(Cl)c1)N1CCN(Cc2ccncc2)CC1
  A = ·	B = ·	C = -1.3	D = -0.3	E = 92.3	F = i	G = 1.05
SMILES: Cc1ccc(/C=C/C(=O)OC(C)C(=O)Nc2ccc(Cl)cn2)o1 (stereo unspecified)
  A = -5.3	B = 110.5	C = -0.6	D = -17.4	E = 89.2	F = i	G = 0.98
SMILES: COc1ccc2c(c1)Cc1sc(NC(=O)c3cccs3)nc1-2
  A = 36.8	B = 134.6	C = -2.9	D = -15.1	E = 30.4	F = i	G = 0.98
SMILES: CC[C@H](C)[C@H](NC(N)=O)C(=O)NCCc1ccc(Cl)cc1Cl
  A = ·	B = ·	C = ·	D = -4.1	E = 102.6	F = i	G = 1
SMILES: CCc1ccc(Nc2nc3ccccc3c(=O)s2)cc1
  A = 40.7	B = 94.5	C = -0.4	D = -8.6	E = 104.7	F = i	G = 0.9
SMILES: Cc1[nH]c2ccccc2c1C(=O)/C=C/c1ccccc1
  A = -29.2	B = 114.0	C = -2.6	D = -9.0	E = 99.4	F = i	G = 0.8
SMILES: O=C(CSC1=NCCS1)Nc1nc2ccccc2s1
  A = -276.2	B = 44.8	C = -2.5	D = -8.0	E = 100.8	F = i	G = 0.82
SMILES: Cc1ccccc1Nc1c(-c2ccccn2)nc2ccccn12
  A = ·	B = ·	C = ·	D = 4.9	E = 101.2	F = i	G = 0.75
SMILES: O=C(NCc1ccccc1)NS(=O)(=O)c1ccccc1Cl
  A = -25.0	B = 101.9	C = -1.8	D = 6.9	E = 106.0	F = i	G = 0.8
SMILES: COc1ccc(C2CC(c3ccccc3OC(C)=O)=NN2C(=O)/C=C/c2ccccc2)cc1OC (stereo unspecified)
  A = 59.2	B = 118.5	C = -0.7	D = 0.0	E = 108.8	F = i	G = 0.89
SMILES: Cc1cc(C(=O)Nc2c(C)nn(Cc3ccccc3)c2C)on1
  A = ·	B = ·	C = -1.9	D = -5.1	E = 106.8	F = i	G = 0.88
SMILES: C=CCOc1ccc(/C=C/C(=O)Nc2ccc(C(=O)NC)cc2)cc1
  A = 28.6	B = 115.2	C = 0.0	D = -1.0	E = 98.5	F = i	G = 0.96
SMILES: C=CCN1C=C2C(=O)C(C)(OC(=O)c3cccs3)C(=O)C=C2C=C1CCCC(=O)OC (stereo unspecified)
  A = ·	B = ·	C = ·	D = ·	E = 101.3	F = i	G = 0.9
SMILES: Nc1nc(Nc2ccccc2Br)nc(C(F)(F)F)n1
  A = ·	B = ·	C = -0.6	D = -21.1	E = 103.2	F = i	G = 1.03

Gathered by group, the compounds so far containing a COOH group.
Labels used below – A = INS promoter inh; B = INS promoter inh cell count; C = GALR2 agonist; D = PKD1 kinase inh; E = RGS16-Gao; F = HSV augment; G = HSV augment primary fold
SMILES: Cc1ccccc1NC(=O)CN1C(=O)N/C(=C\c2cccn2-c2cccc(C(=O)O)c2)C1=O
  A = ·	B = ·	C = ·	D = -2.6	E = 95.1	F = i	G = 0.99
SMILES: COc1ccc(CNS(=O)(=O)c2ccc3oc(C(=O)O)c(C)c3c2)cc1
  A = -9.3	B = 75.0	C = -0.7	D = -2.5	E = 91.5	F = i	G = 1.1

With a hit mark in GALR2 agonist (from the list above):
| Molecule | GALR2 agonist | PKD1 kinase inh | RGS16-Gao | HSV augment primary fold |
| --- | --- | --- | --- | --- |
| CCOc1ccc(Br)cc1C(=O)Nc1ccc(C(=O)NCC(C)C)cc1 | 14.1* | -0.6 | 64.1 | 1.02 |

Record cards, from the list above. Values in the order: INS promoter inh | INS promoter inh cell count | GALR2 agonist | PKD1 kinase inh | RGS16-Gao | HSV augment | HSV augment primary fold
Record of Cc1cc(C(=O)Nc2c(C)nn(Cc3ccccc3)c2C)on1 : · | · | -1.9 | -5.1 | 106.8 | i | 0.88
Record of C=CCOc1ccc(/C=C/C(=O)Nc2ccc(C(=O)NC)cc2)cc1 : 28.6 | 115.2 | 0.0 | -1.0 | 98.5 | i | 0.96
Record of COc1ccc(Cc2nnc(N)s2)cc1OC : 38.5 | 84.1 | -1.1 | -0.2 | · | i | 0.94
Record of CCc1ccc(Nc2nc3ccccc3c(=O)s2)cc1 : 40.7 | 94.5 | -0.4 | -8.6 | 104.7 | i | 0.9
Record of Cc1ccc(/C=C/C(=O)OC(C)C(=O)Nc2ccc(Cl)cn2)o1 (stereo unspecified) : -5.3 | 110.5 | -0.6 | -17.4 | 89.2 | i | 0.98

Following part.
Labels used below – A = INS promoter inh; B = INS promoter inh cell count; C = GALR2 agonist; D = PKD1 kinase inh; E = RGS16-Gao; F = HSV augment; G = HSV augment primary fold
SMILES: c1ccc(CC(Nc2ccccn2)c2ccccc2)cc1 (stereo unspecified)
  A = 0.0	B = 141.6	C = ·	D = 2.2	E = 99.6	F = i	G = 1
SMILES: Clc1cccc(Cc2nn[nH]n2)c1
  A = ·	B = ·	C = ·	D = -5.3	E = 98.5	F = i	G = 1.18
SMILES: Cn1c(-c2ccccc2)cnc1NCc1cc2c(cc1[N+](=O)[O-])OCO2
  A = ·	B = ·	C = 0.7	D = 2.0	E = 103.9	F = i	G = 0.89
SMILES: CCc1cc(C(=O)Cc2nc3ccccc3[nH]2)c(O)cc1O
  A = 27.8	B = 107.7	C = -1.0	D = -15.0	E = 106.6	F = i	G = 1.04
SMILES: CCCCOC(=O)CSC1=C(C#N)C(c2ccccc2OCC)C(C#N)C(=O)N1 (stereo unspecified)
  A = -38.5	B = 105.6	C = 0.2	D = -12.4	E = 119.4	F = i	G = 1.06
